High-throughput results: PubChem, National Center for Advancing Translational Sciences (NCATS)
Rango complex inh: qHTS Assay for Inhibitors of Rango (Ran-regulated importin-beta cargo) - Importin beta complex formation; Importin subunit beta-1 (Homo sapiens), Q14974; Rango CFP/YFP FRET sensor + importin beta, 45 min; Potency, µM (highest dose often 92.2 µM), inactives show top-dose inhibition of complex formation; 340,000 tested, 0.031% active; AID 540263, 2011; active = rising FRET ratio curve, often small or poorly fitted; inconclusive = mostly compound fluorescence or quenching in the first reads; inactive = flat curves in all reads;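 further: potency means the concentration at half of the fitted maximal effect; 0% = DMSO wells and 100% = buffer wells lacking importin beta; nearly all actives have a fitted effect of over 15% in size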
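Inhibition scored from the CFP 486 nm/YFP 530 nm FRET ratio 45 min after adding 0.125 microM importin beta to 50 nM Rango biosensor preincubated 5 min with compound (room temperature, PBS with DTT, Tween-20, BSA). No-importin wells as positive control.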
GLA inh pH 4.5: qHTS Assay for Inhibitors of Human alpha-Galactosidase at pH 4.5; AID 1467, 2008; purified enzyme, 4-MU-alpha-Gal fluorescence, pH 4.5; activity change, negative = inhibition, % at 105 µM; Alpha-galactosidase A (Homo sapiens), P06280; 230,000 tested, under 10 active; inconclusive = small, poorly fitted or top-dose-only inhibition, or a rising curve; inactive = flat fitted curve, though single readings scatter; no compound was filed as active;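 further: 0% = full activity with enzyme and -100% = basal without enzyme; dose as in the result columns while the protocol names 77 µM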
Target sequence (P06280 whole entry, looked up): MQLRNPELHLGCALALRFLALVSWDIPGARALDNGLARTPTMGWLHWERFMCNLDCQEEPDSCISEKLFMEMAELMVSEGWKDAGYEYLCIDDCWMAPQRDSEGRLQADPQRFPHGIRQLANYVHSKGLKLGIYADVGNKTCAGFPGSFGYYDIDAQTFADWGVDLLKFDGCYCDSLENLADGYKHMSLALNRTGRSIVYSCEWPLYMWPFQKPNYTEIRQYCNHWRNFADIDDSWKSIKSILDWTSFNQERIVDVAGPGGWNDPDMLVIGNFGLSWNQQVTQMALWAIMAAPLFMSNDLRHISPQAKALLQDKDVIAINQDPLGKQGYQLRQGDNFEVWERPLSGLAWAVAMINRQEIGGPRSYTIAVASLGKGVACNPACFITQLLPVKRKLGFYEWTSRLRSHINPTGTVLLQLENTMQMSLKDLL
miR-21 reporter: qHTS Assay for Modulators of miRNAs and/orActivators of miR-21; HeLa miR-21 FLuc reporter, luciferase, 48 h; Potency, µM (series often up to 38.3 µM), for inactives: at the top dose reporter change, positive = more light; 340,000 tested, under 10 active; active = well fitted rising curve with a large enough effect; inconclusive = small, poorly fitted or top-dose-only effect; inactive = no such curve, though single readings can be large or run the other way;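 further: % of control where 0% means no effect; miR-21 action dims this reporter so a rising signal means less miR-21 action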
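Using DMEM plus 10% FBS, HeLa miR-21-FLuc cells are incubated with test compounds (final up to about 40uM) for 48 hours; firefly luciferase signal is then imaged following reagent-mediated lysis.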
Rango dissoc inh: qHTS Assay for Inhibitors of RanGTP induced Rango (Ran-regulated importin-beta cargo) - Importin beta complex dissociation; Snurportin-1 (Homo sapiens) + GTP-binding nuclear protein Ran (Homo sapiens) + Importin …; Biochemical FRET Rango-importin beta, RanGTP-induced dissociation; Potency, µM (series often up to 46.1 µM), for the others: top-dose activity change, negative = inhibition; 340,000 tested, 0.071% active; active means falling FRET ratio curve, often poorly fitted, with flat reads before Ran was added; inconclusive means other falling curves, or compound fluorescence or quenching; inactive means flat or rising ratio curve;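 further: potency means the concentration at half of the fitted maximal effect; % of control where 0% means no effect; nearly all actives have a fitted effect of over 45% in size; -100% = wells without RanGTP and RCC1; the record marks most hits as doubtful in a second field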
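Quantitative HTS using a FRET biosensor: 0.1 uM Rango, 0.25 uM importin beta, 0.6 uM Ran, 2 mM GTP, 0.2 uM RCC1 final, PBS with DTT, Tween-20 and BSA. Post-read taken 45 min after Ran addition.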
An asterisk follows results filed as active; ? = inconclusive; . = no result given. This is a subset, so the mix of outcomes need not match the whole.

| canonical_smiles | Rango complex inh | GLA inh pH 4.5 | miR-21 reporter | Rango dissoc inh |
| --- | --- | --- | --- | --- |
| CC(C)(C)NC(=O)C(c1ccc(O)cc1)N(C(=O)CCC(=O)Nc1nccs1)c1ccccc1F (configuration not stated) | -1.4% | -3 | 6% | -3% |
| O=S(=O)(c1ccccc1)c1cnc(-c2cccnc2)nc1-c1ccc(Cl)cc1Cl | 0.7% | -3 | -4% | 2% |
| CC(C)CCN1CC(=O)N2[C@@H](Cc3c([nH]c4ccccc34)C2(C)C)C1=O | -0.3% | . | 6% | 0% |
| COc1ccc(-c2cc(-n3c(C(F)(F)F)nc4ccccc43)n(CCC#N)n2)cc1 | -0.8% | -2 | -16% | 7% |
| O=C(Cc1coc2cc3c(cc12)CCC3)OCc1cc(=O)n2c(n1)sc1ccccc12 | -2.7% | -3 | -1% | ? |
| O=C(C1CCN(S(=O)(=O)c2ccccc2)CC1)N1CCCCC1 | -1.5% | . | 0% | -15% |
| CCOC(=O)c1c(C)nc2sc3c(=O)[nH]cnc3c2c1-c1ccc(OC)cc1 | -4.2% | 4 | -2% | -7% |
| COC(=O)C1=C(Nc2ccccc2NC(=O)CCCC(=O)O)CSC1 | -1.0% | 2 | 1% | -7% |
| O=C(Nc1ccccc1)Nc1cccc(NC(=O)Nc2ccccc2)c1F | -3.5% | . | -31% | -10% |
| O=C1CC(N2CCN(S(=O)(=O)c3ccccc3F)CC2)C(=O)N1c1ccccc1F (configuration not stated) | 6.1% | . | . | 1% |

(further entries)
| canonical_smiles | Rango complex inh | GLA inh pH 4.5 | miR-21 reporter | Rango dissoc inh |
| --- | --- | --- | --- | --- |
| COC(=O)c1sc(-c2ccc(C(C)(C)C)cc2)cc1NC(=O)COCC(=O)O | -1.2% | 0 | -63% | 18% |
| CCC(Oc1ccccc1)C(=O)N1CCN(S(=O)(=O)c2ccccc2)CC1 (configuration not stated) | 1.1% | . | . | -3% |
| CCCC(C(=O)NCCC(C)C)N(Cc1ccccc1Cl)C(=O)c1snc(C(N)=O)c1N (configuration not stated) | 2.6% | . | 6% | -12% |
| O=C(CCn1c(=O)sc2ccccc21)NCc1cccs1 | -2.7% | 7 | -20% | 1% |
| CCN(CC(=O)NCc1ccc(Cl)cc1)C(=O)c1cc(S(=O)(=O)NCc2ccccc2)ccc1C | -0.4% | . | 12% | -12% |
| O=C(Nc1ccc(F)cc1F)c1ccccc1-c1ccccc1 | 2.4% | -9 | -5% | 0% |
| CC(C)=C1SC(N2CCOCC2)=NC1=O | -0.2% | 3 | -1% | -11% |
| O=C(Nc1ccc2c(c1)OCO2)c1ccc[n+]([O-])c1 | 0.9% | 0 | -5% | -6% |
| CN(c1ccccc1)S(=O)(=O)c1ccc(C(=O)N2CCCC(C(F)(F)F)C2)cc1 (configuration not stated) | 2.5% | . | 3% | 5% |
| COCCN1C(=O)N(c2cccc(C)c2)C(=O)C1CC(=O)Nc1ccc(F)cc1 (configuration not stated) | -4.9% | 0 | 0% | 28% |

For reference, part of the list above.
| canonical_smiles | Rango complex inh | GLA inh pH 4.5 | miR-21 reporter | Rango dissoc inh |
| --- | --- | --- | --- | --- |
| CC(C)(C)NC(=O)C(c1ccc(O)cc1)N(C(=O)CCC(=O)Nc1nccs1)c1ccccc1F (configuration not stated) | -1.4% | -3 | 6% | -3% |
| O=S(=O)(c1ccccc1)c1cnc(-c2cccnc2)nc1-c1ccc(Cl)cc1Cl | 0.7% | -3 | -4% | 2% |
| CC(C)CCN1CC(=O)N2[C@@H](Cc3c([nH]c4ccccc34)C2(C)C)C1=O | -0.3% | . | 6% | 0% |
| COc1ccc(-c2cc(-n3c(C(F)(F)F)nc4ccccc43)n(CCC#N)n2)cc1 | -0.8% | -2 | -16% | 7% |
| O=C(Cc1coc2cc3c(cc12)CCC3)OCc1cc(=O)n2c(n1)sc1ccccc12 | -2.7% | -3 | -1% | ? |
| O=C(C1CCN(S(=O)(=O)c2ccccc2)CC1)N1CCCCC1 | -1.5% | . | 0% | -15% |
| CCOC(=O)c1c(C)nc2sc3c(=O)[nH]cnc3c2c1-c1ccc(OC)cc1 | -4.2% | 4 | -2% | -7% |
| COC(=O)C1=C(Nc2ccccc2NC(=O)CCCC(=O)O)CSC1 | -1.0% | 2 | 1% | -7% |
| O=C(Nc1ccccc1)Nc1cccc(NC(=O)Nc2ccccc2)c1F | -3.5% | . | -31% | -10% |
| O=C1CC(N2CCN(S(=O)(=O)c3ccccc3F)CC2)C(=O)N1c1ccccc1F (configuration not stated) | 6.1% | . | . | 1% |
| COC(=O)c1sc(-c2ccc(C(C)(C)C)cc2)cc1NC(=O)COCC(=O)O | -1.2% | 0 | -63% | 18% |
| CCC(Oc1ccccc1)C(=O)N1CCN(S(=O)(=O)c2ccccc2)CC1 (configuration not stated) | 1.1% | . | . | -3% |
| CCCC(C(=O)NCCC(C)C)N(Cc1ccccc1Cl)C(=O)c1snc(C(N)=O)c1N (configuration not stated) | 2.6% | . | 6% | -12% |
| O=C(CCn1c(=O)sc2ccccc21)NCc1cccs1 | -2.7% | 7 | -20% | 1% |
| CCN(CC(=O)NCc1ccc(Cl)cc1)C(=O)c1cc(S(=O)(=O)NCc2ccccc2)ccc1C | -0.4% | . | 12% | -12% |
| O=C(Nc1ccc(F)cc1F)c1ccccc1-c1ccccc1 | 2.4% | -9 | -5% | 0% |
| CC(C)=C1SC(N2CCOCC2)=NC1=O | -0.2% | 3 | -1% | -11% |

Carrying on:
| canonical_smiles | Rango complex inh | GLA inh pH 4.5 | miR-21 reporter | Rango dissoc inh |
| --- | --- | --- | --- | --- |
| Nc1c(C(=O)NCc2ccco2)sc2nc3c(cc12)C(=O)CCC3 | ? | 3 | -31% | -12% |
| O=C(/C=C/c1ccccc1[N+](=O)[O-])N1CCc2ccccc2C1 | 0.9% | . | -37% | -8% |
| CCOc1ccc(-c2c(C(=O)N/N=C/C3CC=CCC3)nnn2-c2nonc2N)cc1 (configuration not stated) | 1.1% | . | -3% | 7% |
| CCOC(=O)C1CCN(CCC(=O)Nc2ccc(Cl)cc2)CC1 | 2.5% | -7 | 7% | -12% |
| Cc1ccc2c(C)c(C(=O)N(C)C(C)c3ccon3)oc2c1C (configuration not stated) | 0.7% | . | -85% | -13% |
| CCOc1ccc(C(=O)NCc2ccco2)cc1OCC | 1.5% | . | -3% | 24% |
| CC(NC(=O)c1cccc(S(=O)(=O)N2CCN(Cc3ccccc3)CC2)c1)c1ccc(Cl)cc1 (configuration not stated) | 0.2% | . | . | 9% |
| CCOc1ccccc1/C=N/Nc1ccnc(=O)[nH]1 | ? | . | -11% | -7% |
| CC(C(=O)O)n1cc(C#N)c(=O)[nH]c1=O (configuration not stated) | 2.6% | . | . | 26% |
| CCOC(=O)c1c(NC(=O)Nc2cccc(Cl)c2)sc(C)c1C | 2.3% | 4 | -2% | -8% |

Following part
| canonical_smiles | Rango complex inh | GLA inh pH 4.5 | miR-21 reporter | Rango dissoc inh |
| --- | --- | --- | --- | --- |
| CCCN1CC23C=CC(O2)C(C(=O)O)C3C1=O (configuration not stated) | -4.3% | -4 | -4% | -11% |
| Cc1ccc(S(=O)(=O)Nc2ccnc(-c3cccnc3)n2)cc1 | 0.9% | 9 | 0% | -10% |
| Cc1cccc(/C=N/NC(=O)Cc2ccc(Cl)cc2)c1O | -4.0% | . | 16% | -14% |
| CCCCn1c(CN2CCN(c3ccccc3)CC2)nc2c1c(=O)n(C)c(=O)n2C | -0.2% | -1 | 2% | 26% |
| Cc1ccc(N(C(=O)C2CCCO2)C2C=CS(=O)(=O)C2)cc1Cl (configuration not stated) | 3.4% | 4 | -2% | -4% |
| CCn1c(SCC(=O)Nc2ccc3c(c2)c2ccccc2n3CC)nnc1-c1cnccn1 | 0.6% | -3 | 19% | -5% |
| Cc1cc(C)cc(NC(=O)C[n+]2ccccc2)c1 | 0.2% | . | 1% | -6% |
| Cc1nn(C)cc1/C=N/NC(=O)Cn1cncn1 | -1.7% | -5 | -1% | -14% |
| Cc1ccccc1CN(c1ccc(C(=O)NCc2ccccn2)cc1)S(C)(=O)=O | -3.0% | -24 | 3% | 3% |
| Cc1ccc(N(C(=O)Cn2nnc(-c3cccs3)n2)C(C(=O)NC2CCCC2)c2ccncc2)cc1 (configuration not stated) | -2.8% | 2 | 2% | 0% |

The listing continues.
| canonical_smiles | Rango complex inh | GLA inh pH 4.5 | miR-21 reporter | Rango dissoc inh |
| --- | --- | --- | --- | --- |
| CCn1c(SCC(=O)c2ccc(Cl)cc2)nnc1C(C)C | ? | -3 | -33% | 3% |
| CCOc1ccccc1C(=O)Nc1ccc2nc(N3CCN(c4ncccn4)CC3)cc(C)c2c1 | -0.2% | . | . | -5% |
| COc1ccc(NC(=O)CC2C(=O)NCCN2C(=O)Nc2ccc(C(F)(F)F)cc2)cc1 (configuration not stated) | 2.2% | . | -6% | -14% |
| NC(=O)C1CCN(S(=O)(=O)Cc2ccccc2Cl)CC1 | -1.8% | -5 | -4% | -2% |
| CN(C)CCCn1c(SCc2c(Cl)cccc2Cl)nnc1-c1ccncc1 | -0.2% | . | 2% | -10% |
| O=C(Nc1cc(C(F)(F)F)ccc1N1CCOCC1)c1ccc2ccccc2n1 | 0.2% | 1 | -32% | -15% |
| CCOc1cccc(/C=N/N2C(=O)CSC2=S)c1O | -0.2% | -10 | -26% | -28% |
| COC(=O)CN1C(=O)N/C(=C/c2ccc(C)o2)C1=O | -0.2% | -12 | 0% | -10% |
| O=C(CCNS(=O)(=O)c1ccccc1)NCCCc1ccccc1 | -0.8% | . | . | -8% |
| COc1ccccc1OCC(=O)Nc1ccncc1 | -0.1% | . | -6% | 0% |
| COc1ccc(NC2CCCN(C(=O)c3csc(C(C)C)n3)C2)cc1 (configuration not stated) | 6.9% | . | -4% | -4% |
